Screening results: PubChem BioAssay, National Center for Advancing Translational Sciences (NCATS)
PINK1 modulator = modulators of PINK1 expression | 0.2% of 410,000 active | AID 624263 | Potency, µM (titrated, usually from 76.6 µM), for the others: at the highest dose activation (PINK1 increase), actives largely listed as activators | PINK1 immunofluorescence, high-content cytometry, 24 h; active = well fitted activation curve with a large enough effect; inconclusive = small, poorly fitted or top-dose-only effect; inactive = flat fitted curve, though single readings scatter; cell line not stated here;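 further: potency means the concentration at half of the fitted maximal effect; % of control where 0% means no effect; nearly all actives have a fitted effect of over 65% in size; a mitochondrial uncoupler was the plate control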
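Fluorescence from anti-PINK1 antibody, together with nuclear and cell stains, was scanned on a laser-scanning cytometer. Before staining, stable-line cells were incubated 24 hours with compounds at 5 concentrations; primary antibody 12 h at 10 degrees C.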
TRPML1 inh = blocks the human TRPML1 channel. AID 624415. TRPML1-inducible cells, Ca2+ dye fluorescence, FDSS; hits give low values; inhibition of EC80 agonist-evoked calcium signal. activity change, negative = inhibition, % (no concentration beside the values). 0.02% of 390,000 active; in the data active means activity change below about -50%; inconclusive means about -30% to -50%; inactive means above about -30%;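 further: stimulus is agonist 54-4 at its EC80 concentration; on the % scale 0 is the no-effect control and ±100 the full control effect; compound concentration not given in the record; the text of the record puts the active cut at -80%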
Target sequence (Q9GZU1 whole entry, looked up): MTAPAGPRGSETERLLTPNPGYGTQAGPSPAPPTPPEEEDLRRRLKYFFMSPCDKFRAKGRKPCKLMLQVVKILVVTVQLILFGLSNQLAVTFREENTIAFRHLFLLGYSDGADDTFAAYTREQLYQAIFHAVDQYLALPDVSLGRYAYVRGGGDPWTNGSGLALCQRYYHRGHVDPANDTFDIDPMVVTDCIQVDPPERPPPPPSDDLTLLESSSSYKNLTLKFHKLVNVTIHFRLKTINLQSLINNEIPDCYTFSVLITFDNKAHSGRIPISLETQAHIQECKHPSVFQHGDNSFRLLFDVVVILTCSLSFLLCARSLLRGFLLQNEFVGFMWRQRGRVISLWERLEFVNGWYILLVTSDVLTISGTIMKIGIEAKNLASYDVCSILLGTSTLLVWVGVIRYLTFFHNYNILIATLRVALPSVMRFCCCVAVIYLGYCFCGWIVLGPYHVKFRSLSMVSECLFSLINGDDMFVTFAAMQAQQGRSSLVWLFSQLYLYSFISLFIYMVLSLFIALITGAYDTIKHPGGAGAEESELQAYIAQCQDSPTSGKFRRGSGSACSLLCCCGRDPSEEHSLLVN
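Calcium fluorescence in TRPML1-DL cells induced overnight with Tet: a 110 s read after compound pin addition, then a 110 s antagonist read after challenge with 54-4 at 4 uM final (EC80).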
Six1-Eya2 blk = inhibitors of human Six1/Eya2 interaction; activity change, % (test concentration not listed); AlphaScreen GST-Six1/His-Eya2 binding, biochemical; hits give low values; control for the full effect not named in the record; 0.56% of 360,000 active; Q15475+O00167; in the data active = activity change below about -65%; inconclusive = about -30% to -65%; inactive = above about -30%; further: on the % scale 0 is the no-effect control and ±100 the full control effect; compound concentration not given in the record
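Homogeneous AlphaScreen proximity assay pairing GST-Six1 with His-tagged Eya2 (added as 5X mix: 250 nM and 500 nM) in 50 mM Tris pH 8.0, 300 mM NaCl, 1 mM TCEP. Glutathione donor and nickel acceptor beads; 1 h, 37 °C, dark.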
D2 PAM = human D2 receptor positive allosteric modulation; DiscoveRx D2 beta-arrestin cells, luminescence, 90 min; 100% = 57 uM dopamine signal; AID 624464; P14416; potentiation, % (test concentration not listed); 0.23% of 360,000 active; active = potentiation of 50% or more; inconclusive = 30% to 50%; inactive = 30% or less;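 further: compound concentration not given in the record; tested on top of an EC20 dose of dopamine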
Target sequence (P14416 whole entry, looked up): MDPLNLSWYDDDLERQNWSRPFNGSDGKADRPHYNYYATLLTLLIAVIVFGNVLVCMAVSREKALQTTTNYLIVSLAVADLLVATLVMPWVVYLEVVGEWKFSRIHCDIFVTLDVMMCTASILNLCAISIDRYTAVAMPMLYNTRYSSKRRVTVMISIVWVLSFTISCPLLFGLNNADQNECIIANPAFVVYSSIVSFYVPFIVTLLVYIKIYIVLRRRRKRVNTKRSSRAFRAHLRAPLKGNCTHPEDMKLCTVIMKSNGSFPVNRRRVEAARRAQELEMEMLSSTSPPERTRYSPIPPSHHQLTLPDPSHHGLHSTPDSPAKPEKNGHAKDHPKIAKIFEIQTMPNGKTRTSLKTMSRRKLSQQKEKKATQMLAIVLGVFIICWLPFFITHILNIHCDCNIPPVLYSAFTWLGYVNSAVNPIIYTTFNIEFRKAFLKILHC
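PathHunter beta-arrestin assay in DiscoveRx D2 cells. Compounds were added with an EC20 of dopamine (50 nM final) for 90 min at 37 deg C. Luminescence was read 1 h after detection reagent, with 57 uM dopamine as the EC100 control.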
TRPML1 agonist = agonists of human TRPML1 channel; Q9GZU1; TRPML1-expressing cells, Ca2+ dye fluorescence, FDSS; host cell line not named in the record; reference of the full effect not given here; activation, % (concentration not given with the values); 0.12% of 410,000 active; in the data active = activation above about 50%; inconclusive = about 30% to 50%; inactive = below about 30%; further: 0% is about no effect; the text of the record puts the active cut at 80%
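Calcium fluorescence on an FDSS kinetic reader gave the read-out. Tet-induced TRPML1-DL cells were plated overnight, dye-loaded (Ca8 with quencher, 45-90 min, room temperature, dark), then read 110 s after compound addition, and again 110 s after 4uM final 54-4 (EC80).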
D2 agonist = agonists of human D2 dopamine receptor (beta-arrestin); 0.084% of 360,000 active; DiscoveRx PathHunter D2 beta-arrestin, luminescence, 90 min; 100% = 57 uM dopamine signal; activation, % (concentration not given with the values); AID 624465; P14416; in the data active = activation above about 40%; inconclusive = about 15% to 40%; inactive = below about 15%; further: compound concentration not given in the record; the text of the record calls up to 30% inactive
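Agonist mode: compounds alone added to overnight-plated D2 PathHunter cells for 90 min at 37 C, with 57 uM final dopamine (EC100) defining full response. Beta-arrestin recruitment detected by chemiluminescent reagent, read after 1 h at ambient temperature.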
An asterisk follows results filed as active; ? = inconclusive; . = not tested or not shown; [ ] = dose if it differs, or a comment.

SMILES	PINK1 modulator	TRPML1 inh	Six1-Eya2 blk	D2 PAM	TRPML1 agonist	D2 agonist
NC(=O)c1ccc[n+](Cc2cccc3ccccc23)c1	2.5%	12	-2	-4	-0.7	-3.9
COc1ccc(OC)c(C(C)NC(=S)NC2CCCCC2)c1 (stereo unspecified)	?	16	-7	-25	0.2	-2.9
Cc1ccc(C)c(OCCC(=O)OCC(=O)Nc2cc(S(=O)(=O)N3CCCCC3)ccc2C)c1	2.4%	-7	4	2	0.1	1.1
CN(C)c1nc(N(C)C)n(Cc2c(Cl)cccc2Cl)n1	1.4%	-9	2	3	-1.1	-6.8
CCOCc1cnc(C)nc1NCC(=O)c1c(C)[nH]c2cc(C)ccc12	0.5%[38.3 µM]	13	5	-17	1.1	-0.4
CCOc1ccc(/C=N/N2C(C)CCCC2C)cc1 (stereo unspecified)	12%	9	-8	-3	-0.4	-1.3
CCOC(=O)/C(C#N)=C1/SC(CC)C(=O)N1c1ccc(C)cc1 (stereo unspecified)	1.6%	-4	2	10	2.2	-0.5
CC(C)CCNC(=O)CN1C(=O)NC(c2ccccc2)(c2ccccc2)C1=O	2.8%	-28	-1	-2	0.8	1.7
Cc1ccc(NC(=O)C(c2ccccc2)N2CCN(CC(=O)NC3CC3)CC2)cc1Cl (stereo unspecified)	2.1%	-1	2	-15	1.4	-6.3
C[C@H](NC(=O)[C@H]1N2C(=O)c3ccccc3C2SC1(C)C)C(=O)N1CCN(C)CC1 (stereo partly specified)	1.8%	-13	10	-8	4.0	-6.5
Cc1ccc(-n2ncc3c(NCCc4ccccc4)ncnc32)cc1Cl	9.1%	38	.	.	-0.3	.
CCOc1ccc(N(CC(=O)NCc2ccccc2)S(=O)(=O)c2c(C)noc2C)cc1	1.7%	5	12	2	1.3	1.3
COc1ccc(NC(=O)CN(C)CC(=O)N2CC(=O)Nc3ccccc32)cc1	0.0%	6	-1	-2	-0.6	2.2
O=C(Cn1sc2ccccc2c1=O)NC12CC3CC(CC(C3)C1)C2	-0.7%	-1	4	-31	0.7	-2.6
Cc1ccc(NC(=O)c2cc(S(=O)(=O)N(C)C)ccc2N2CCCC2)cc1S(=O)(=O)N(C)C	1.1%	1	-7	10	-0.7	-2.5
CC1(C)Oc2ccc3ccc(=O)oc3c2C(N2CCCCC2)C1O (stereo unspecified)	2.0%	3	1	-2	-0.5	-3.0
O=C(Nc1ccccn1)NC1CCCCC1	2.1%	34	17	-20	-0.5	-2.4
CCN(Cc1ccncc1)C(=O)c1ccc(C)o1	0.2%	5	2	-11	-0.4	-2.3
CCc1ccccc1NC(=S)N1CCN(c2ccccc2F)CC1	1.9%	5	-20	-15	-1.5	-4.1
COc1ccc(NC(=O)[C@H](C)NC(=O)C2CCN(S(=O)(=O)c3ccc(OC)cc3)CC2)cc1	-0.6%	-14	2	-7	-1.4	1.3
O=C(Nc1ccc(Br)cc1)c1cccc(S(=O)(=O)N2CCc3ccccc32)c1	4.2%	3	.	.	1.3	.
COC(=O)C1CC2(C(=O)OC)CC(C(=O)OC)(CC(C(=O)OC)C2=O)C1=O (stereo unspecified)	0.3%	-11	3	-19	-0.4	-2.7
CN(Cc1ccon1)Cc1cn(C)nc1-c1ccc(Oc2ccccc2)cc1	2.3%	17	-1	5	1.2	-2.8
CCc1nnc(SC(CC)C(=O)Nc2cccc(OC)c2)c2cc3oc(C)cc3n12 (stereo unspecified)	0.7%	-7	.	.	0.5	.

Profiles from above. Screens in order: PINK1 modulator | TRPML1 inh | Six1-Eya2 blk | D2 PAM | TRPML1 agonist | D2 agonist
CC1(C)Oc2ccc3ccc(=O)oc3c2C(N2CCCCC2)C1O (stereo unspecified) is entered as 2.0% | 3 | 1 | -2 | -0.5 | -3.0
CCc1nnc(SC(CC)C(=O)Nc2cccc(OC)c2)c2cc3oc(C)cc3n12 (stereo unspecified) is entered as 0.7% | -7 | . | . | 0.5 | .
O=C(Nc1ccccn1)NC1CCCCC1 is entered as 2.1% | 34 | 17 | -20 | -0.5 | -2.4
COc1ccc(NC(=O)[C@H](C)NC(=O)C2CCN(S(=O)(=O)c3ccc(OC)cc3)CC2)cc1 is entered as -0.6% | -14 | 2 | -7 | -1.4 | 1.3
O=C(Cn1sc2ccccc2c1=O)NC12CC3CC(CC(C3)C1)C2 is entered as -0.7% | -1 | 4 | -31 | 0.7 | -2.6

Next section
SMILES	PINK1 modulator	TRPML1 inh	Six1-Eya2 blk	D2 PAM	TRPML1 agonist	D2 agonist
O=C(N/N=C/c1cccc([N+](=O)[O-])c1)c1cccs1	-0.1%	4	-10	-11	-0.6	1.8
O=C(C1CCCCC1)N1CCC2CC1c1cc(N3CCCCC3)ccc12 (stereo unspecified)	0.8%	-3	-9	1	-0.6	-5.7
O=C(c1cnn2c1NC(c1ccc(Br)cc1)CC2C(F)(F)F)N1CCN2CCCC2C1 (stereo unspecified)	-4.6%[38.3 µM]	-13	-14	-20	-0.2	-3.6
O=C(COC(=O)c1ccccc1SCC(=O)N1CCCC1)Nc1ccccc1C(F)(F)F	1.1%	-5	3	-22	-1.0	-3.6
N#CC1=C(N)Oc2cc(N)ccc2C1c1ccc(F)cc1F (stereo unspecified)	10%	-10	11	1	3.0	1.8
CCOc1ccc(N(C)S(=O)(=O)c2cc(-c3cc(C)no3)ccc2C)cc1	1.2%	13	2	24	-0.6	3.1
COc1ccc2[nH]c(=O)c(CN(Cc3ccc4c(c3)OCO4)C(C)=O)cc2c1	-1.8%	1	4	6	-0.3	-0.4
COc1cccc(/C=C2\SC(=O)N(CC(=O)NCCCn3ccnc3)C2=O)c1	-0.8%	-16	-19	-14	1.1	-3.2
Cc1ccc(NC(=O)c2ccc3c(c2)S(=O)(=O)c2ccccc2C3=O)cc1S(=O)(=O)N1CCOCC1	-0.3%	8	-17	-3	0.4	-0.9
Nc1nc(-c2ccco2)nn1C(=O)c1ccccc1Cl	0.1%	-17	2	-8	0.1	-5.3
COc1ccc(Cl)cc1NC(=O)CN(C)C(=O)Cc1ccc2c(c1)CCC2	0.4%	50	-5	-36	2.6	-5.9
COC(=O)c1ccc2c(c1)N(C)C(=O)CS2	5.4%[38.3 µM]	12	4	-3	-0.1	-1.8
COc1cccc(NC(=O)c2ccc(NC(C)=O)cc2)c1	-1.6%	21	4	-13	-0.6	-0.1
Cc1c(C(=O)Nc2cccc(F)c2)cnn1-c1ccccc1	0.4%	2	-16	-4	0.4	3.6
Cc1ccc(CSc2nc3ccccc3c(=O)[nH]2)cc1	4.4%	7	0	6	3.4	5.3
COC(=O)[C@@H]1CCCN1C(=O)c1ccc(OC2CCN(Cc3ccccn3)CC2)cc1	-1.1%	-8	8	-16	0.8	3.1
Cc1ccc(C(=O)NC2CCCc3ccccc32)cc1[N+](=O)[O-] (stereo unspecified)	7.1%	12	-5	-6	0.5	-4.8
CC(C)CC(=O)Nc1ccc2c(c1)nc(CCN1CCOCC1)n2C	-0.6%	24	-2	5	0.1	-3.2
COc1ccc(CN2C(=O)c3cccc4cccc2c34)cc1F	0.0%	46	32	-2	3.3	-1.5
O=[N+]([O-])C(C1CCS(=O)(=O)C1)C1CCS(=O)(=O)C1 (stereo unspecified)	0.0%	27	4	0	0.5	1.8
CCNc1ccc(C(=O)NN=C2CCCC2)cc1[N+](=O)[O-]	1.2%	-5	-9	-5	-1.1	0.2
COc1ccc2c(Sc3ccc(C)cc3)c(C(=O)NCc3ccc(F)cc3)[nH]c2c1	2.6%	-12	.	.	-0.6	.
COC(=O)N(NC(=O)C(O)(c1ccccc1)c1ccccc1)c1ccccc1	-0.4%	11	-1	-22	-1.0	-3.9
Cc1ccc(OC(=O)c2ccc3nc(C)sc3c2)cc1	7.3%	-7	9	-10	24	-3.0
COc1cc(/C=N/N2CCN(Cc3ccc(C)cc3)CC2)cc(OC)c1O	-0.9%	17	-17	-4	0.8	-2.6
O=C(c1ccc(COc2ccccc2Br)o1)N1CCCCCC1	?	9	-2	-25	1.5	4.5
COc1ccccc1OCc1nc(Cc2ccc(Cl)cc2)no1	1.4%	2	47	0	0.9	-0.4
Cc1nn(-c2cccc(C(F)(F)F)c2)c(=O)c2noc(C)c12	0.2%	-1	-9	-2	0.5	-0.3
O=C(Cn1c(C(F)(F)F)nc2ccccc21)NCCN1CCCC1	?	-6	2	-9	-0.1	-2.4
N#CC1(Nc2ccc3c4c(cccc24)CC3)CCCCC1	1.5%	-16	-6	-19	-0.4	-1.8
CN(C)c1nc(-c2ccccc2)nc(-c2ccc(Cl)cc2)c1C#N	7.7%	14	2	1	-0.3	-2.6
CCOC(=O)Cn1c(CN(Cc2ccccc2)Cc2ccccc2)nc2c1c(=O)[nH]c(=O)n2C	-5.0%[38.3 µM]	7	-3	-12	0.7	-0.7
COc1ccc(CCNC(=O)Nc2nc(CN)cs2)cc1OC	-0.2%	.	?	-4	-0.2	-4.5
Cc1ccc(C)c(N2CCN(CCCNC(=O)c3ccc4nc(N5CCC(C)CC5)sc4c3)CC2)c1	-0.2%	-5	.	.	0.0	.
COc1ccc(N)cc1S(=O)(=O)Nc1ccccc1Cl	0.3%	-5	4	2	0.8	-3.7
COc1cccc2c1cc1c(=O)n(CC(=O)N3CCN(c4ccccc4)CC3)nc(C)n12	0.2%	-17	.	.	-0.3	.
CCn1c(-c2cc(-c3cc(C)ccc3C)nc3ccccc23)n[nH]c1=S	-1.5%	-18	1	-9	-0.4	-0.9
COc1cc(/C=N/n2cnc3scc(-c4cccs4)c3c2=O)cc(OC)c1OC	7.1%	-1	12	-6	-0.1	-1.2
Cc1ccc(NC(=O)COC(=O)CNC(=O)c2cccs2)cc1S(=O)(=O)N1CCOCC1	0.3%	-20	0	2	1.6	1.3
CCc1ccc2[nH]c(=O)c(CN(CCN3CCOCC3)C(=O)Nc3ccccc3F)cc2c1	1.5%	-25	-2	-4	-0.3	-3.3
CN(C)C(=O)c1ccc(Nc2ncnc3sc4c(c23)CCCCC4)cc1	3.7%	9	-9	3	1.1	-3.7
Cc1ccc2[nH]c(=O)c(C(c3nnnn3CC3CCCO3)N3CCCc4ccccc43)cc2c1 (stereo unspecified)	6.6%[38.3 µM]	-3	-17	-2	-0.1	-0.2
Cc1ccc(-c2cc(C(=O)N/N=C/c3ccoc3)c3ccccc3n2)cc1	7.9%	3	-7	-4	0.0	1.2
CCn1c(C(O)c2cccc(OC)c2OC)nc2ccccc21 (stereo unspecified)	-3.8%	-11	10	0	-0.6	-2.0
CC(C)C(C(=O)NCC1CCCO1)N(C(=O)CNS(=O)(=O)c1ccccc1)c1ccc(F)cc1 (stereo unspecified)	-0.5%	-8	3	-3	-0.5	4.4
CC1CCCC(C)N1C(=O)COC(=O)c1ccc[nH]c1=O (stereo unspecified)	-0.1%	-1	1	0	-0.7	-1.2
CNC(=O)/C=C1\NC(C)(C)Cc2c1ccc1ccccc21	8.9%	1	4	-10	0.1	-2.2

Some of the entries above, reformatted:
canonical_smiles,PINK1 modulator,TRPML1 inh,Six1-Eya2 blk,D2 PAM,TRPML1 agonist,D2 agonist
COC(=O)C1CC2(C(=O)OC)CC(C(=O)OC)(CC(C(=O)OC)C2=O)C1=O (stereo unspecified),0.3%,-11,3,-19,-0.4,-2.7
CN(Cc1ccon1)Cc1cn(C)nc1-c1ccc(Oc2ccccc2)cc1,2.3%,17,-1,5,1.2,-2.8
